NPYLR7 agonist = activates Aedes aegypti NPYLR7 receptor. HEK293T NPYLR7/Galpha15, GCaMP6s calcium fluorescence. activation, % at 10 µM. hit rate 0.15% among 270,000. AID 1259423; in the data active means activation above about 40%;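 further: 0% = vehicle and 100% = reference agonist at the receptor; some compounds past the cut are filed as inactive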
NPYLR7 agonist max-min = recorded beside NPYLR7 agonist, whose call it bears; activation, %; measured here: Max-Min RFU normalised activation; some inactives read as strong as hits;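 span of the calcium signal over five minutes; 0% = vehicle and 100% = native peptide agonist; compound fluorescence can raise it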
An asterisk follows results filed as active; & = joins results of further samples. The list is partial. The share of hits here may be higher or lower than overall.

`Cc1ccc(F)cc1S(=O)(=O)N1CCN(C(c2ccccc2)c2ccc(Cl)cc2)CC1` (stereo unspecified) gave NPYLR7 agonist 8 and NPYLR7 agonist max-min 9.
For CCNC(=O)Cn1c(=O)c2c(ncn2C2CCCC2)n(Cc2ccccc2)c1=O the results were NPYLR7 agonist 5 and NPYLR7 agonist max-min 2.
For C=C(C)Cn1c(SCC(=O)N/N=C\c2ccc(C(C)C)cc2)nnc1-c1ccc(Br)cc1 the results were NPYLR7 agonist -3 and NPYLR7 agonist max-min -8.
`CCn1c(C2CCN(Cc3ccc(OC)c(COC)c3)CC2)n[nH]c1=O` gave NPYLR7 agonist -6 and NPYLR7 agonist max-min -9.
For NS(=O)(=O)c1ccc(C2CNC(=O)C2)cc1 (stereo unspecified) the results were NPYLR7 agonist -5 and NPYLR7 agonist max-min -8.
`Fc1ccc(C(OCCCc2cnc[nH]2)c2ccc(F)cc2)cc1` gave NPYLR7 agonist 5 and NPYLR7 agonist max-min -27.
`CCOc1ccc(-n2c(C(C)N(CCc3ccc(OC)c(OC)c3)C(=O)c3ccc(Cl)cc3Cl)nc3ccccc3c2=O)cc1` (stereo unspecified) gave NPYLR7 agonist -11 and NPYLR7 agonist max-min -11.
CCOC(=O)C1=C(COC(=O)CC(C)c2ccccc2)NC(=O)NC1c1ccc(OC)cc1 (stereo unspecified) was read as NPYLR7 agonist 7 and NPYLR7 agonist max-min 5.
CN(Cc1ccccc1)C1CCCN(Cc2cccc3nonc23)C1 (stereo unspecified) was read as NPYLR7 agonist 7 and NPYLR7 agonist max-min 4.
For O=C(N[C@H]1CCN2C(=O)c3ccccc3NC(=O)[C@@H]2C1)[C@H]1CCCN1 the results were NPYLR7 agonist -10 and NPYLR7 agonist max-min -17.
For CC(Sc1ncn[nH]1)C(=O)NC1(C#N)CCCCC1 (stereo unspecified) the results were NPYLR7 agonist 3 and NPYLR7 agonist max-min -3.
`Nc1ccc(OS(=O)(=O)c2ccc(Cl)c(N)c2)cc1` gave NPYLR7 agonist 1 and NPYLR7 agonist max-min 4.
CCc1noc(-c2ccc(CCNC(=O)N3CCC3)cc2)n1 was read as NPYLR7 agonist 7 and NPYLR7 agonist max-min 4.
For CNC(=O)c1ccc(CNC(=O)c2[nH]c3ccc(C)cc3c2C)o1 the results were NPYLR7 agonist 8 and NPYLR7 agonist max-min 5.
COc1ccc(C(=O)Nc2ccc(-n3nc(OCC(C)C)nc3-c3ccc(C(F)(F)F)cc3)cc2)c(OC)c1 was read as NPYLR7 agonist 24 and NPYLR7 agonist max-min 25.
`O=[N+]([O-])c1cccc(S(=O)(=O)NN=C2CCc3ccccc32)c1` gave NPYLR7 agonist 14 and NPYLR7 agonist max-min 14.
For CC(C)C(=O)Nc1ccc(Sc2nncs2)cc1 the results were NPYLR7 agonist 15 and NPYLR7 agonist max-min 16.
Screening CC1CCCN(CC(=O)Nc2sc3c(c2C(N)=O)CCC3)C1 (stereo unspecified) returned NPYLR7 agonist 2 and NPYLR7 agonist max-min 13.
`Cc1nc(C(F)(F)F)ccc1C(=O)N1CCN(c2nc3ccccc3nc2C)CC1` gave NPYLR7 agonist 15 and NPYLR7 agonist max-min 8.
`COc1cc(CN(C)C(C)c2ccccn2)cc2c1OCO2` (stereo unspecified) gave NPYLR7 agonist -20 and NPYLR7 agonist max-min -18.
For O=C(/C=C/c1cn(S(=O)(=O)c2cccc3ccccc23)c2ccccc12)N1CCc2ccccc2C1 the results were NPYLR7 agonist -7 and NPYLR7 agonist max-min -15.
Screening c1ccc(CNc2nc3nonc3nc2N2CCN(Cc3ccc4c(c3)OCO4)CC2)cc1 returned NPYLR7 agonist 8 and NPYLR7 agonist max-min 2.
Cc1cc(NCC2CCCO2)n2nc(C(F)(F)F)c(-c3ccc(Cl)cc3)c2n1 (stereo unspecified) was read as NPYLR7 agonist 1 and NPYLR7 agonist max-min -8.
Screening Cc1ccc(C)c(S(=O)(=O)N2CCN(c3ccc(C)nn3)CC2)c1 returned NPYLR7 agonist -13 and NPYLR7 agonist max-min -22.
`COCCCN(Cc1ccc(OS(C)(=O)=O)cc1)C(=O)Nc1ccc(C(C)C)cc1` gave NPYLR7 agonist 8 and NPYLR7 agonist max-min 18.
For Nc1nc(N2CCCCCC2)nc(N2CCN(Cc3ccccc3)CC2)c1[N+](=O)[O-] the results were NPYLR7 agonist -1 and NPYLR7 agonist max-min -3.
Cn1nc(NC(=O)c2ccccc2C(F)(F)F)c2c1NC(=O)CC2c1cccs1 (stereo unspecified) was read as NPYLR7 agonist -14 and NPYLR7 agonist max-min -20.
`CC(c1ccccc1)N1CCN(C(=O)c2cccc3ccccc23)CC1` (stereo unspecified) gave NPYLR7 agonist 12 and NPYLR7 agonist max-min -1.
`Cc1nn(-c2ccccc2)c(Cl)c1CN1CCCC1c1ccc(O)cc1` (stereo unspecified) gave NPYLR7 agonist 9 and NPYLR7 agonist max-min 6.
For CCOC(=O)C1(C)CCCN1C(=O)c1cccc2ccccc12 (stereo unspecified) the results were NPYLR7 agonist 1 and NPYLR7 agonist max-min 0.

The closing 7 compounds of the part above open the next one:
Screening Cc1ccc(C)c(S(=O)(=O)N2CCN(c3ccc(C)nn3)CC2)c1 returned NPYLR7 agonist -13 and NPYLR7 agonist max-min -22.
`COCCCN(Cc1ccc(OS(C)(=O)=O)cc1)C(=O)Nc1ccc(C(C)C)cc1` gave NPYLR7 agonist 8 and NPYLR7 agonist max-min 18.
For Nc1nc(N2CCCCCC2)nc(N2CCN(Cc3ccccc3)CC2)c1[N+](=O)[O-] the results were NPYLR7 agonist -1 and NPYLR7 agonist max-min -3.
Cn1nc(NC(=O)c2ccccc2C(F)(F)F)c2c1NC(=O)CC2c1cccs1 (stereo unspecified) was read as NPYLR7 agonist -14 and NPYLR7 agonist max-min -20.
`CC(c1ccccc1)N1CCN(C(=O)c2cccc3ccccc23)CC1` (stereo unspecified) gave NPYLR7 agonist 12 and NPYLR7 agonist max-min -1.
`Cc1nn(-c2ccccc2)c(Cl)c1CN1CCCC1c1ccc(O)cc1` (stereo unspecified) gave NPYLR7 agonist 9 and NPYLR7 agonist max-min 6.
For CCOC(=O)C1(C)CCCN1C(=O)c1cccc2ccccc12 (stereo unspecified) the results were NPYLR7 agonist 1 and NPYLR7 agonist max-min 0.
`NC(N)=NCCN1CCCCCCC1` gave NPYLR7 agonist -3&-4&-3 and NPYLR7 agonist max-min -11&-9&-5.
`Cc1cc(C(=O)N2CCC2(C)C(=O)NS(=O)(=O)c2ccccc2Cl)nn1C` (stereo unspecified) gave NPYLR7 agonist -1 and NPYLR7 agonist max-min -2.
For COc1ccc(NS(=O)(=O)c2ccc(F)cc2[N+](=O)[O-])c(OC)c1 the results were NPYLR7 agonist -6 and NPYLR7 agonist max-min 0.
`Cc1ncsc1CCNC(=O)CSCc1ccccc1Cl` gave NPYLR7 agonist -17 and NPYLR7 agonist max-min -14.
Screening CCCc1nc(CN2CCN(CC(O)c3ccccc3)C(C)C2)no1 (stereo unspecified) returned NPYLR7 agonist -2 and NPYLR7 agonist max-min 5.
Screening CNc1cc(-c2ccc(C(=O)OC)cc2)ncn1 returned NPYLR7 agonist 2 and NPYLR7 agonist max-min 0.
`Cc1ccc2[nH]c(O)c(N=NC(=O)c3cc(O)cc(O)c3)c2c1Br` gave NPYLR7 agonist 4 and NPYLR7 agonist max-min 1.
Screening COc1ccccc1N1CCN(C(=O)c2cc3ccsc3n2CCCc2ccccc2)CC1 returned NPYLR7 agonist 5 and NPYLR7 agonist max-min 5.
For O=C(NC(C(=O)N/N=C\c1cccc(Cl)c1Cl)c1n[nH]c(=O)c2ccccc12)c1ccccc1 (stereo unspecified) the results were NPYLR7 agonist -5 and NPYLR7 agonist max-min 2.
Screening Cc1ccc(CN(C(=O)c2cnc3c(c2)c(=O)[nH]c(=O)n3C2CC2)C(C)C)o1 returned NPYLR7 agonist 4 and NPYLR7 agonist max-min -1.
Screening CNc1nc2cnc(-c3ccccc3Oc3ccccc3)cc2n1-c1ccccc1 returned NPYLR7 agonist 14 and NPYLR7 agonist max-min 1.
COc1cccc(CN2CCC(C(=O)NC(c3ccc(-c4ccccc4)cc3)c3cnccn3)CC2)c1 (stereo unspecified) was read as NPYLR7 agonist 3 and NPYLR7 agonist max-min 4.
Screening COCC(C)NC(=O)c1cc(-c2cc(OC)c(OC)c(OC)c2)nc2ccccc12 (stereo unspecified) returned NPYLR7 agonist 13 and NPYLR7 agonist max-min 8.
`O=C(OCC(=O)N1CCc2sccc2C1)c1cc(=O)c2ccccc2o1` gave NPYLR7 agonist 8 and NPYLR7 agonist max-min 6.
Screening COC(=O)c1csc(NC(=O)CCCc2ccccn2)c1 returned NPYLR7 agonist 3 and NPYLR7 agonist max-min 3.
Screening Cc1nn(C)c(C)c1CCC(=O)NCc1ccc2c(c1)OCCCO2 returned NPYLR7 agonist -12 and NPYLR7 agonist max-min -17.
`Cn1ccnc1CN1CCCC(CCNS(C)(=O)=O)C1` (stereo unspecified) gave NPYLR7 agonist 5 and NPYLR7 agonist max-min 2.
For Cc1cccc(S(=O)(=O)NC(=O)C2(C)CCN2C(=O)c2cccc3ccccc23)c1 (stereo unspecified) the results were NPYLR7 agonist 3 and NPYLR7 agonist max-min 3.
For COc1ccc(CN(CCC(C)C)CC(O)COCc2ccccc2)cc1 (stereo unspecified) the results were NPYLR7 agonist 17 and NPYLR7 agonist max-min 15.
`CCC(=O)N(CC1CC1)c1cc(Cl)ccc1C#N` gave NPYLR7 agonist 9 and NPYLR7 agonist max-min 5.
Screening CNS(=O)(=O)CCCS(=O)(=O)C(C)c1ccc(F)cc1 (stereo unspecified) returned NPYLR7 agonist 5 and NPYLR7 agonist max-min 1.
Screening CCCCc1ccc(C(=O)N2CCN(c3nc(-c4cccc(F)c4)nc(C)c3CC)CC2)cc1 returned NPYLR7 agonist -2 and NPYLR7 agonist max-min 7.
Screening Cc1ccc(Cl)cc1NC(=O)c1cccn(OCc2cccc(Cl)c2)c1=O returned NPYLR7 agonist 13 and NPYLR7 agonist max-min 11.
For CN(Cc1ccsc1)C(=O)c1ccc(C2CCCO2)s1 (stereo unspecified) the results were NPYLR7 agonist 3 and NPYLR7 agonist max-min 4.
For CCCCCCCC(=O)N1CCN(c2cc(Cl)nc(SCC(=O)N3CCC4(CC3)OCCO4)n2)CC1C (stereo unspecified) the results were NPYLR7 agonist 20 and NPYLR7 agonist max-min 13.
CN(c1ccccc1)S(=O)(=O)c1ccc(Cl)cc1C(F)(F)F was read as NPYLR7 agonist -2 and NPYLR7 agonist max-min 5.
`COC(=O)c1c(I)c(I)nn1C` gave NPYLR7 agonist 0 and NPYLR7 agonist max-min 0.
Screening COc1cn(CC(=O)NCc2ccc(C)cc2)c(CN2CCCCC2)cc1=O returned NPYLR7 agonist -1 and NPYLR7 agonist max-min -1.
For Cc1cc(C)c(C2NC(=O)N(C)C3=C2C(=O)N(CCc2ccccn2)C3)cc1C (stereo unspecified) the results were NPYLR7 agonist -2 and NPYLR7 agonist max-min 6.
`CC(=O)CC1(O)C(=O)N(CCOc2cccc3ccccc23)c2c(C)cccc21` (stereo unspecified) gave NPYLR7 agonist -7 and NPYLR7 agonist max-min -7.
Screening COCCOC(=NCc1ccccn1)NC(=O)c1ccc(Cl)c(Cl)c1 returned NPYLR7 agonist 17 and NPYLR7 agonist max-min 20.
For CCc1nc(CC(=O)NCCCN(C)c2ccc(F)cc2)cs1 the results were NPYLR7 agonist -7 and NPYLR7 agonist max-min -9.
C#CCNC(=O)N1CCCN(C(=O)c2ccccc2)CC1 was read as NPYLR7 agonist 4 and NPYLR7 agonist max-min 3.
Screening O=C(CSc1nncn1-c1ccccc1F)NCCc1cccs1 returned NPYLR7 agonist 10 and NPYLR7 agonist max-min 6.
CC1CN(S(=O)(=O)C2CCCN(C(=O)OCc3ccccc3)C2)C(C)CO1 (stereo unspecified) was read as NPYLR7 agonist 4 and NPYLR7 agonist max-min 1.
`CCCCc1ncc(/C=C(\Cc2cccs2)C(=O)O)n1Cc1ccc(C(=O)O)cc1` gave NPYLR7 agonist -24 and NPYLR7 agonist max-min -34.
`N#Cc1c(-c2ccco2)c2c([nH]c1=S)CCC2` gave NPYLR7 agonist 4 and NPYLR7 agonist max-min 4.
Screening COc1cc(NCCOc2ccc(C)cc2)cc(OC)c1OC returned NPYLR7 agonist 3 and NPYLR7 agonist max-min 2.
`CC(C)(C)CC(C)(C)c1ccc(OCC(=O)NNC(=O)c2ccccc2C(=O)O)cc1` gave NPYLR7 agonist 7 and NPYLR7 agonist max-min -6.
`CCOC(=O)c1c(C)oc2cc(Br)c(OCC(=O)C(C)(C)C)cc12` gave NPYLR7 agonist -1 and NPYLR7 agonist max-min -5.
CCOC(=O)C1CCCN(C(=O)N2CCN(c3ccccc3)CC2)C1 (stereo unspecified) was read as NPYLR7 agonist -1 and NPYLR7 agonist max-min -3.
Screening O=C(CNC1CCCCC1)Nc1c2c(nc3c1CCC3)CCCC2 returned NPYLR7 agonist 3 and NPYLR7 agonist max-min 1.
`Fc1ccccc1N1CCN(c2nc3ccccc3n3cnnc23)CC1` gave NPYLR7 agonist 8 and NPYLR7 agonist max-min 7.
COc1ccc(F)c(CC2(CCC(=O)NC3Cc4ccccc4C3)CCC(=O)N2)c1 (stereo unspecified) was read as NPYLR7 agonist 3 and NPYLR7 agonist max-min 0.
Screening Fc1ccc(-c2nnc(-c3ccc4c(c3)OCO4)o2)cc1 returned NPYLR7 agonist 8 and NPYLR7 agonist max-min 7.
For O=C(NCc1ccccc1)c1cc(-c2ccc(F)cc2)nc2cc(-c3ccccc3)nn12 the results were NPYLR7 agonist 7 and NPYLR7 agonist max-min 9.

Fetched one by one from the entries so far:
`O=C(OCC(=O)N1CCc2sccc2C1)c1cc(=O)c2ccccc2o1` gave NPYLR7 agonist 8 and NPYLR7 agonist max-min 6.
`CC(c1ccccc1)N1CCN(C(=O)c2cccc3ccccc23)CC1` (stereo unspecified) gave NPYLR7 agonist 12 and NPYLR7 agonist max-min -1.

Screening data as filed in PubChem.
